Bioassay records (PubChem BioAssay)
Vaccinia stage – Vaccinia orthopox stage-specific inhibition; Vaccinia-infected cells, mCherry/Venus stage reporter fluorescence; stronger effect = lower value; some inactives read as strong as hits; activity change (mCherry), % (concentration not given with the values); 89,000 tested, 0.01% active; AID 1053133;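 active means mCherry past -33% and 40 or more points under the early reporter, replicates agreeing; inconclusive means past -33% without that gap or agreement; tested in A549 cells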;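 further: scaled between vehicle wells and reference inhibitor wells; 23 nL library stock went into each well; one replicate is shown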
Vaccinia stage Venus – recorded beside Vaccinia stage, whose call it bears; activity change (Venus), %; measured here: Venus reporter, other viral stage;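 negative = less Venus signal; first of two replicates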
* marks the source's active call; other numbers are inactive results; u = inconclusive; x = not tested or not shown.

SMILES	Vaccinia stage	Vaccinia stage Venus
COCC(=O)N1CC(=O)N2[C@H](CO)[C@@H](c3ccc(C#CCc4ccccc4)cc3)[C@@H]2C1	13	-4
O=C(O)C[C@H]1C[C@H]2c3cc(NS(=O)(=O)c4ccc(F)cc4)ccc3O[C@H]2[C@@H](CO)O1	11	9
C[C@H]1CN([C@@H](C)CO)C(=O)c2cc(C#CCN(C)C)cnc2O[C@H]1CN(C)C(=O)c1cnccn1	12	9
C[C@H]1CCCCO[C@H](CN(C)C(=O)Cc2ccccc2)[C@@H](C)CN([C@@H](C)CO)C(=O)c2cc(NS(C)(=O)=O)ccc2O1	16	11
C[C@@H]1CN([C@H](C)CO)C(=O)c2cc(-c3ccccc3)cnc2O[C@H]1CN(C)C(=O)c1cccnc1	10	0
C[C@@H]1CCCCO[C@@H](CN(C)C(=O)c2ccccc2)[C@@H](C)CN([C@@H](C)CO)C(=O)c2cc(NC(=O)c3ccccc3)ccc2O1	23	4
CO[C@H]1CN(C)C(=O)c2cc(NS(=O)(=O)c3ccccc3F)ccc2OC[C@@H](C)NC[C@@H]1C	17	14
C[C@@H]1CCCCO[C@H](CN(C)C(=O)C2CCCCC2)[C@H](C)CN([C@@H](C)CO)C(=O)c2cc(NC(=O)c3ccncc3)ccc2O1	-14	-12
C[C@@H]1CN([C@H](C)CO)C(=O)c2cccc(NS(=O)(=O)c3ccc(F)cc3)c2O[C@H]1CN(C)C	14	9
C[C@H](NC(=O)C[C@H]1C[C@@H]2c3cc(NC(=O)CN(C)C)ccc3O[C@@H]2[C@H](CO)O1)c1ccccc1	16	16
C[C@H](CO)N1C[C@H](C)[C@H](CN(C)Cc2cccc(F)c2)Oc2ncc(C#CCc3ccccc3)cc2C1=O	-12	-12
COc1ccc(S(=O)(=O)N(C)C[C@@H]2Oc3ccc(NS(=O)(=O)c4c(C)noc4C)cc3C(=O)N([C@H](C)CO)C[C@H]2C)cc1	4	9
C[C@H]1CN([C@@H](C)CO)C(=O)c2cc(NC(=O)Cn3cnnn3)ccc2O[C@H]1CN(C)CC1CC1	-7	-7
C[C@@H]1CN([C@H](C)CO)C(=O)Cc2cc(NS(=O)(=O)c3cccs3)ccc2O[C@H]1CN(C)Cc1ccc(C(F)(F)F)cc1	u	x
O=C(C[C@H]1C[C@@H]2c3cc(NS(=O)(=O)c4ccc(F)cc4)ccc3O[C@@H]2[C@H](CO)O1)NCc1ccc(Oc2ccccc2)cc1	u	x
CN1CCN(C(=O)C[C@@H]2C[C@@H]3c4cc(NC(=O)Nc5ccc(F)cc5)ccc4O[C@@H]3[C@H](CO)O2)CC1	2	2
COc1cccc(C#Cc2ccc([C@@H]3[C@@H](CO)N(C(=O)c4ccccn4)[C@H]3C#N)cc2)c1	-28	-14
CN(C[C@H]1[C@@H](c2ccccc2)[C@H](CO)N1C(=O)C1CCC1)C(=O)c1ccccn1	3	8
Cc1ccc(S(=O)(=O)N[C@H]2C=C[C@H](CC(=O)NCc3ccc(Cl)c(Cl)c3)O[C@@H]2CO)cc1	u	x
CC(C)NC(=O)N1C[C@@H]2[C@H](c3ccccc31)[C@H](CO)N2C(=O)c1ccccc1	0	5
COCC(=O)N[C@H]1CC[C@@H](CC(=O)N2CCCCC2)O[C@H]1CO	-1	0
CCCNC(=O)C[C@H]1CC[C@@H]2[C@H](COC[C@H](O)CN2Cc2ccc(Cl)c(Cl)c2)O1	-4	-1
CCC(=O)N1CC2(C1)[C@H](c1ccccc1)[C@H](CO)N2C(=O)c1cccnc1	-1	1
C[C@@H]1CN([C@@H](C)CO)C(=O)c2cc(NC(=O)c3ccccc3)ccc2O[C@@H](C)CCCCO[C@@H]1CN(C)Cc1ccc(C(=O)O)cc1	30	11
CO[C@@H]1CN(C)C(=O)c2ccc(NC(=O)C3CCC3)cc2OC[C@@H](C)N(Cc2ccccn2)C[C@H]1C	16	17
COCc1cn(CC[C@@H]2CC[C@@H](NC(=O)Nc3ccc(C(F)(F)F)cc3)[C@@H](CO)O2)nn1	-3	1
N#C[C@@H]1[C@@H](c2ccccc2-c2cccc(F)c2)[C@H](CO)N1C(=O)C1CCOCC1	13	8
CO[C@H]1CN(C)C(=O)c2cc(NC(=O)C3CC3)ccc2OC[C@H](C)N(CC2CC2)C[C@H]1C	0	0
COc1ccc(S(=O)(=O)Nc2ccc3c(c2)CC(=O)N([C@@H](C)CO)C[C@@H](C)[C@@H](CN(C)Cc2ccc(Oc4ccccc4)cc2)O3)cc1	-11	-7
CN(C)CC(=O)Nc1ccc2c(c1)[C@@H]1C[C@@H](CC(=O)NC3CCCC3)O[C@@H](CO)[C@@H]1O2	22	16
C[C@@H]1CCCCO[C@@H](CN(C)S(=O)(=O)c2ccccc2)[C@H](C)CN([C@H](C)CO)C(=O)c2cc(NC(=O)NC3CCCCC3)ccc2O1	-21	-15
C[C@H]1CN([C@@H](C)CO)C(=O)c2cccc(NS(=O)(=O)c3ccccc3)c2O[C@H]1CN(C)Cc1ccncc1	8	7
C/C=C/c1cnc2c(c1)C(=O)N([C@@H](C)CO)C[C@H](C)[C@H](CN(C)CC1CCOCC1)O2	16	9
CN1CCN(C(=O)C[C@H]2CC[C@H]3[C@@H](COC[C@H](O)CN3CC3CCCC3)O2)CC1	-14	-11
O=C(O)C[C@@H]1CC[C@H](NC(=O)Nc2cc(F)ccc2F)[C@H](CO)O1	5	0
CC(=O)N(C)C[C@H]1Oc2cc(C#CCN(C)C)ccc2S(=O)(=O)N([C@@H](C)CO)C[C@H]1C	13	2
C[C@@H]1CN([C@@H](C)CO)S(=O)(=O)c2ccc(C#Cc3ccncc3)cc2O[C@@H]1CN(C)C(=O)c1ccncc1	-28	-10
CCNC(=O)C[C@@H]1CC[C@@H]2[C@H](COc3ccc(NC(=O)c4ccc5c(c4)OCO5)cc3C(=O)N2C)O1	5	4
C[C@H]1CN([C@@H](C)CO)C(=O)Cc2cc(NC(=O)Cn3cnnn3)ccc2O[C@@H]1CN(C)Cc1ccccc1	14	10
CC(C)CC#Cc1ccc2c(c1)O[C@@H](CN(C)C(=O)c1cccc(F)c1)[C@H](C)CN([C@@H](C)CO)S2(=O)=O	u	x
O=C(c1ccccc1F)N1C[C@@H]2[C@H](c3ccccc31)[C@@H](CO)N2C(=O)Nc1ccccc1	8	5
Cc1ccc(S(=O)(=O)N(C)C[C@@H]2OCCCC[C@H](C)Oc3ccc(NS(=O)(=O)c4ccc(F)cc4)cc3C(=O)N([C@H](C)CO)C[C@@H]2C)cc1	u	x
N#C[C@@H]1[C@@H](c2ccc(C3=CCCC3)cc2)[C@@H](CO)N1C(=O)C1CCCC1	13	18
C[C@H](CO)N1C[C@H](C)[C@@H](CN(C)Cc2cccnc2)Oc2ncc(/C=C/c3ccccc3)cc2C1=O	3	1
COc1ccc(CN(C)C[C@H]2Oc3ccc(NC(=O)Nc4ccc(OC)cc4)cc3CC(=O)N([C@@H](C)CO)C[C@H]2C)cc1	-22	-13
COc1ccc(S(=O)(=O)N(C)C[C@H]2Oc3c(NC(=O)c4cnccn4)cccc3C(=O)N([C@H](C)CO)C[C@@H]2C)cc1	-1	-2
CO[C@H]1CN(C)C(=O)c2cc(NS(C)(=O)=O)ccc2OC[C@@H](C)N(C(=O)C2CCCC2)C[C@@H]1C	7	4
O=C(NCC1CC1)[C@H]1[C@H](CO)[C@H]2Cn3c(ccc(-c4ccccc4)c3=O)[C@@H]1N2CC1CC1	-7	3
C[C@H](CO)N1C[C@H](C)[C@@H](CN(C)C(=O)CCC(F)(F)F)OCCCC[C@H](C)Oc2ccc(NS(=O)(=O)c3ccccc3)cc2C1=O	5	0
COCc1cn(CC[C@H]2CC[C@H](NC(=O)Nc3ccc(Cl)cc3)[C@H](CO)O2)nn1	9	3
CCO[C@@H]1OC(C(=O)N2CCN(Cc3ccccc3)CC2)=C[C@H](c2ccc3c(c2)OCO3)[C@H]1CCCO	-1	6
C[C@@H]1CN([C@@H](C)CO)C(=O)c2cccc(NC(=O)c3nc4ccccc4s3)c2O[C@@H]1CN(C)Cc1ccc(-c2ccccc2)cc1	-9	-12
CNC[C@@H]1Oc2ncc(C#CC3(O)CCCC3)cc2C(=O)N([C@@H](C)CO)C[C@H]1C	-1	9
C[C@H]1CN([C@@H](C)CO)C(=O)c2cccc(NC(=O)c3ccncc3)c2O[C@H]1CN(C)Cc1ccc(Oc2ccccc2)cc1	1	-4
O=C(NC[C@H]1CC[C@@H]2[C@@H](CN2S(=O)(=O)c2ccccc2F)O1)C1CCCCC1	1	5
C[C@@H]1CN([C@@H](C)CO)C(=O)c2cc(NC(=O)NC3CCCCC3)ccc2O[C@@H]1CN(C)Cc1ccc2c(c1)OCO2	-9	-4
COc1ccc2c3c(n(C)c2c1)[C@H](CO)N(C(=O)Cc1ccccn1)CC31CCN(CC2CC2)CC1	-3	-3
COCC(=O)N(C)C[C@@H]1Oc2ncc(C#Cc3ccc(F)cc3)cc2C(=O)N([C@H](C)CO)C[C@H]1C	25	4
COCC(=O)N1[C@@H]2CN(C(=O)Nc3ccccc3F)c3ccccc3[C@@H]2[C@@H]1CO	8	4
Cc1ccccc1S(=O)(=O)N1CC(=O)N2[C@H](CO)[C@@H](c3ccc(C#Cc4ccccc4)cc3)[C@H]2C1	-7	-8

(continued)
SMILES	Vaccinia stage	Vaccinia stage Venus
C[C@H]1CN([C@@H](C)CO)C(=O)c2cc(Br)cnc2O[C@H]1CN(C)C(=O)C1CCCCC1	9	12
C[C@@H]1CN([C@@H](C)CO)C(=O)CCCn2nncc2CO[C@@H]1CN(C)C(=O)Oc1ccc2ccccc2c1	-7	7
C[C@H](CO)N1C[C@H](C)[C@H](CN(C)C(=O)Nc2ccccc2)OCCCC[C@H](C)Oc2ccc(NC(=O)Cc3ccccc3)cc2C1=O	-20	-8
COc1ccc([Si](C)(C)[C@@H]2[C@@H](CCn3cc(CCO)nn3)O[C@]3(C(=O)N(Cc4ccc(N5CCOC5=O)cc4)c4ccccc43)[C@H]2C)cc1	u	x
CN(C)C(=O)c1ccc(-c2ccc([C@H]3[C@@H](CO)N4CCCCN(S(C)(=O)=O)C[C@@H]34)cc2)cc1	35	8
C[C@@H]1CN([C@@H](C)CO)C(=O)c2cc(NC(=O)Nc3cccc4ccccc34)ccc2O[C@@H](C)CCCCO[C@@H]1CN(C)CC1CCCCC1	0	-9
CCC(=O)Nc1ccc2c(c1)C(=O)N(C)[C@H]1CC[C@@H](CC(=O)NCCOC)O[C@H]1CO2	8	6
CN1C(=O)c2cc(NC(=O)c3ccc(F)c(F)c3)ccc2OC[C@@H]2O[C@H](CC(=O)N[C@H]3CCN(Cc4ccccc4)C3)CC[C@@H]21	u	x
COc1ccc(S(=O)(=O)Nc2cccc3c2O[C@H](CN(C)Cc2ccc(C(=O)Nc4ccccc4N)cc2)[C@H](C)CN([C@@H](C)CO)C3=O)cc1	-34	-28
C[C@H]1CN([C@@H](C)CO)C(=O)c2cc(-c3cccc(C#N)c3)cnc2O[C@H]1CN(C)C(=O)C1CC1	37	16
CCCNC(=O)N1C[C@H](O)COC[C@@H]2O[C@H](CC(=O)NCCCN3CCOCC3)CC[C@H]21	16	14
COc1cccc(NC(=O)N[C@@H]2CC[C@H](CC(=O)Nc3ccccc3)O[C@@H]2CO)c1	-16	-6

By substructure, those above containing a COOH group.
SMILES	Vaccinia stage	Vaccinia stage Venus
O=C(O)C[C@H]1C[C@H]2c3cc(NS(=O)(=O)c4ccc(F)cc4)ccc3O[C@H]2[C@@H](CO)O1	11	9
C[C@@H]1CN([C@@H](C)CO)C(=O)c2cc(NC(=O)c3ccccc3)ccc2O[C@@H](C)CCCCO[C@@H]1CN(C)Cc1ccc(C(=O)O)cc1	30	11
O=C(O)C[C@@H]1CC[C@H](NC(=O)Nc2cc(F)ccc2F)[C@H](CO)O1	5	0

Arranged by SMILES length (lowest first): three of the compounds above
SMILES	Vaccinia stage	Vaccinia stage Venus
CCC(=O)Nc1ccc2c(c1)C(=O)N(C)[C@H]1CC[C@@H](CC(=O)NCCOC)O[C@H]1CO2	8	6
C[C@H]1CN([C@@H](C)CO)C(=O)c2cc(-c3cccc(C#N)c3)cnc2O[C@H]1CN(C)C(=O)C1CC1	37	16
COc1ccc([Si](C)(C)[C@@H]2[C@@H](CCn3cc(CCO)nn3)O[C@]3(C(=O)N(Cc4ccc(N5CCOC5=O)cc4)c4ccccc43)[C@H]2C)cc1	u	x

Returning to the listing, starting 2 compounds before the break.
SMILES	Vaccinia stage	Vaccinia stage Venus
CCCNC(=O)N1C[C@H](O)COC[C@@H]2O[C@H](CC(=O)NCCCN3CCOCC3)CC[C@H]21	16	14
COc1cccc(NC(=O)N[C@@H]2CC[C@H](CC(=O)Nc3ccccc3)O[C@@H]2CO)c1	-16	-6
O=C(C[C@H]1CC[C@@H]2[C@H](COC[C@@H](O)CN2Cc2ccc3c(c2)OCO3)O1)Nc1ccccc1	-8	-7
C[C@@H]1CN([C@@H](C)CO)S(=O)(=O)c2ccc(C#CC3CCCCC3)cc2O[C@H]1CN(C)C(=O)Cc1ccncc1	u	x
O=C(C[C@@H]1CC[C@H]2[C@@H](COC[C@H](O)CN2S(=O)(=O)c2cccc(F)c2)O1)Nc1ccccc1	-3	-12
C[C@@H]1CCCCO[C@@H](CN(C)C(=O)Cc2ccccc2)[C@@H](C)CN([C@H](C)CO)C(=O)c2cc(NC(=O)CCCCCC(=O)Nc3ccccc3N)ccc2O1	23	0

This is a subset; count on the stated rates, not on these rows.
